# Calb biofilm kill – mixtures killing C. albicans biofilm; C. albicans biofilm persisters + clotrimazole, fluorescence viability; primary screen in compound mixtures of four per well; inhibition, % at 7.6 µM; hit rate 0.02% among 120,000;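 active = inhibition above 30.3% in the primary screen of four-compound pools, then above 30% when the compound was retested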;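 note: compounds exposed to preformed 24 h biofilms for 48 h; the number belongs to the whole pool; some results filed as inactive read as strong as hits; inactives centre near 12; 0% = biofilm with clotrimazole alone and 100% = kill control; retested singly at about 60 µM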
#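 Assay system: C. albicans biofilms / Medium: RPMI/MOPS medium, pH 7.0 / Schedule: biofilm formation 24 h, compound exposure 48 h, 37 °C / Measured by: Alamar Blue fluorescence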
# * marks the source's active call; other numbers are inactive results. An excerpt; count on the stated rates, not on these rows.
mol,Calb biofilm kill
O=C(NNc1ccccc1)C(=O)NNS(=O)(=O)c1ccc([N+](=O)[O-])cc1,4.9
NC(=O)c1ccc(NC(=O)c2ccccc2S(=O)(=O)c2ccccc2[N+](=O)[O-])cc1,9.9
O=C(COc1ccc(/C=N/NC(=O)C(=O)N2CCCCC2)cc1)Nc1ccccc1Cl,21.4
COc1ccc(NC(=O)Cn2c(=O)n(-c3ccc(CC(=O)NCc4ccco4)cc3)c(=O)c3ccccc32)cc1,17.7
CC1CC(=O)Nc2ccccc2N1C(=O)CN1CCN(c2ccccc2)CC1 (stereo not drawn),17.9
O=C(N/N=C\c1ccc2c(c1)OCO2)c1ccco1,17.4
Cc1ccc(NC(=O)CN(C)S(=O)(=O)c2ccc(Br)s2)cc1F,17.9
CCOC(=O)Nc1ccc2c(COC(=O)CNS(=O)(=O)c3ccc(NC(C)=O)cc3)cc(=O)oc2c1,7.8
Cc1cc(Br)ccc1SCC(=O)OCC(=O)NCc1ccc2c(c1)OCO2,22.0
Cc1noc(NS(=O)(=O)c2ccc(NC(=O)C34CC5CC(C3)CC(n3cnc(Cl)n3)(C5)C4)cc2)c1C,13.7
O=C(NCCc1csc(-c2cccnc2)n1)c1c(F)cccc1F,10.8
Cc1cc2cc3c(cc2nc1SCC(=O)N1c2ccccc2CC1C)OCO3 (stereo not drawn),8.4
CC(c1ccc(F)cc1)n1cc(C(=O)NCc2ccccn2)nn1 (stereo not drawn),7.3
O=C(c1cn(-c2ccccc2)nc1-c1cc2ccccc2oc1=O)N1CCOCC1,17.1
COCc1cc(C)nc(OC)c1C(N)=O,13.4
COc1cc([N+](=O)[O-])ccc1NC(=O)COC(=O)C=C(C)C,14.1
COC(=O)C(Cc1ccccc1)NC(=O)C12CC3CC(CC(C3)C1)C2 (stereo not drawn),6.7
Cn1c(=O)n(C)c2cc([N+](=O)[O-])c(N3CCN(C(=O)c4ccc(F)cc4)CC3)cc21,9.0
Cc1ccc(C)c(NC(=O)CCC(=O)N/N=C/c2cc([N+](=O)[O-])ccc2O)c1,22.7
Cc1cccc(C)c1N1CCN(C(=O)N2CCOCC2)CC1,6.1
N#C/C(=C(/O)CCl)c1nnc2n1CCCCC2,10.7
CCOc1cc(Br)ccc1S(=O)(=O)N1CCC(C(N)=O)CC1,-1.3
CCCCn1c2c(c(=N)c3ccccc31)CCC2,18.5
Cc1ccc2nc(-c3ccc(N4C(=O)CC(N5CCN(CCO)CC5)C4=O)cc3)sc2c1 (stereo not drawn),8.0
Cc1ccc(S(=O)(=O)N2CCC(=O)N(C(COCc3ccccc3)C(C)C)CC2)cc1 (stereo not drawn),17.7
CC(C)(C)C1CCC(OCC(O)CN2CCN(Cc3ccccc3)CC2)CC1 (stereo not drawn),14.1
O=C(Nc1nnc(-c2ccncc2)o1)C1CCCCC1,4.5
CCCCOc1ccccc1/C=N/NC(=O)CC#N,13.0
Cc1cc(Cl)ccc1NNC(=O)c1c(C)noc1C,6.5
O=C(c1ccccc1)c1nccc2ccccc12,9.6
O=C(CC12CC3CC(CC(C3)C1)C2)NC(=S)N1CCCCC1,21.8
CC(=O)Nc1ccc(N2N=C(C)C(N=Nc3ccccc3)C2=O)cc1 (stereo not drawn),8.4
CCOc1ccccc1N1CCN(Cc2cnc(-c3ccccc3)[nH]2)CC1,19.3
N#Cc1c(C(F)(F)F)cc(-c2ccc(Cl)cc2)nc1SCC(=O)O,27.0
CCSc1nc2c(c(=O)[nH]1)C(c1cccs1)C(C(=O)OC)=C(C)N2 (stereo not drawn),11.0
N/C(=N\OC(=O)c1cc(Br)ccc1Cl)c1ccccn1,8.4
COc1nc(Nc2ccc(C(C)C)cc2)nc(OC)n1,10.2
O=C(OCc1cc([N+](=O)[O-])cc2c1OCOC2)c1ccccn1,16.5
COc1ccc(NC(=S)Nc2ccc(C)c(S(=O)(=O)N3CCCCC3)c2)cc1,14.4
C/C=C1\C(OC2OC(CO)C(O)C(O)C2O)OC=C(C(=O)OC)C1CC(=O)OCC1C(C)C(OC(=O)CC2C(C(=O)OC)=COC(OC3OC(CO)C(O)C(O)C3O)/C2=C\C)CC1C(CO)CO (stereo not drawn),3.8
CCC(CC)C(=O)c1c[nH]c(C(=O)N2CCN(c3ccccc3F)CC2)c1,14.5
N#Cc1cc2c(nc1SCC(=O)O)CCCCC2,9.1
Cc1sc(N)nc1-c1cccs1,15.0
CCN(CC)c1ccc(NC(=O)COC(=O)COc2ccccc2[N+](=O)[O-])cc1,17.2
CCc1nnc(NC(=O)c2cc(S(=O)(=O)N3CCOCC3)ccc2N2CCCCC2)s1,-5.3
S=C1NC2(CCS1)Oc1ccccc1C1CC(c3ccccc3)=NN12 (stereo not drawn),14.2
COc1ccc(/C=N/NC(=O)c2ccncc2)cc1CN1CCCc2ccccc21,8.6
COc1ccc(NC(=O)C(NC(=O)c2ccc(=O)[nH]c2)c2ccccc2)cc1 (stereo not drawn),21.7
NC(=O)C1(N2CCCCC2)CCN(C(=S)Nc2ccccc2)CC1,15.7
CCCn1nnnc1SCC(=O)NNC(=O)c1ccco1,20.4

# Reprinted at random: 3 entries already listed
mol,Calb biofilm kill
CCCn1nnnc1SCC(=O)NNC(=O)c1ccco1,20.4
CCc1nnc(NC(=O)c2cc(S(=O)(=O)N3CCOCC3)ccc2N2CCCCC2)s1,-5.3
COc1ccc(NC(=O)C(NC(=O)c2ccc(=O)[nH]c2)c2ccccc2)cc1 (stereo not drawn),21.7

# (continued)
mol,Calb biofilm kill
Cc1ccc(SCC(=O)Nc2ccc(S(N)(=O)=O)cc2)cc1,9.2
Cc1cc(C)nc(NC=C2C(=O)OC(C)(C)OC2=O)n1,16.8
Cc1cc(C)c2nc(NCCCNC(=S)NCCCN(C)C)c(C#N)cc2c1,12.5
COc1ccc(-c2ccc(C(c3c(C)[nH][nH]c3=O)c3c(C)[nH][nH]c3=O)o2)c([N+](=O)[O-])c1,-2.0
COc1cccc(NC(=O)COC(=O)c2ccccc2C(=O)N2CCN(c3ccccc3)CC2)c1,10.2
O=C(O)CC1(CC(=O)Nc2ccc3c(c2)C(=O)OC3)CCCCC1,6.8
COc1ccc(NC(=O)CSCC(=O)NCCc2ccccn2)cc1,13.8
CN(CC(=O)NC(=O)NCc1ccccc1)Cc1cccc(Cl)c1Cl,16.9
Cc1ccccc1NC(=O)NCc1ccc2c(c1)OCO2,8.0
NC(=O)[C@@H]1CCCNc2c(I)cc([N+](=O)[O-])cc2C(=O)N[C@@H](CO)C(=O)NCC(=O)N1,16.5
O=C(COC(=O)/C=C/c1ccc(F)cc1)Nc1ccc(Cl)cn1,13.3
Cc1ccc(S(=O)(=O)NNC2=NCCCCC2)cc1,13.0
O=C(NC1CCNCC1)C1CC1,28.0
CCn1cc(C(=O)O)c(=O)c2cc(F)c(N3CCN(C(=S)NC(=O)c4ccccc4)CC3)cc21,18.8
CC(=O)Oc1cccc(-c2nc3ccccc3c(=O)o2)c1,8.8
CSc1ccc(/C=C(/NC(=O)c2ccccc2)C(=O)N2CCN(C)CC2)cc1,9.6
C/[N+]([O-])=C\c1ccc([N+](=O)[O-])o1,18.2
CCOC(=O)c1cc(C#N)c(=S)[nH]c1C,13.7
COc1ccc(C2CC(c3cccs3)=NN2C(=O)CSc2nc3c(cnn3-c3ccccc3)c(=O)[nH]2)cc1 (stereo not drawn),10.2
CC1(C)CC(=O)C/C(=N\NC(=O)C2C3CCCCC32)C1 (stereo not drawn),15.8
O=C(Cn1cnc2ccccc21)c1ccc(Br)cc1,25.7
COc1ccccc1OCCn1cc(/C=C(\C#N)C(=O)NCc2cccs2)c2ccccc21,19.4
N#CCCn1cc(/C=N/NC(N)=S)c(-c2ccc(Br)cc2)n1,15.4
CCCn1c(SCC(=O)c2ccc(OC)c(OC)c2)nc2c1c(=O)n(C)c(=O)n2C,19.4
COCc1nnc(NC(=O)c2ccc(Cl)cc2[N+](=O)[O-])s1,8.7
CCOc1ccc(/C=C/C(O)=C2/C(=O)N(C)C3(C)CC2c2ccccc2O3)cc1OC (stereo not drawn),3.1
CCC1=NN(C(=O)c2ccc(C)cc2)C(O)(c2ccc(Br)cc2)C1 (stereo not drawn),13.8
CC(=O)Oc1ccc(C(=O)Nc2cccc(C(=O)c3cccc(NC(=O)c4ccc(OC(C)=O)cc4)c3)c2)cc1,12.0
Cc1ccc(NC(=O)Cc2noc3ccccc23)cc1,19.5
Cc1ccccc1CNS(=O)(=O)c1ccc2c(c1)OCCO2,3.8
O=C(CC1C(=O)NCCN1Cc1ccc(-c2ccccc2)cc1)NCc1ccncc1 (stereo not drawn),-2.4
Cc1ccc(OCCN(C)C)c([N+](=O)[O-])c1,3.8
CC1(C)Cc2cccc(C(=O)Nc3ccc(Cl)cc3)c2O1,20.2
Cc1ccc(Cl)cc1NC(=S)N(Cc1ccccc1)Cc1cccnc1,-4.6
O=S(=O)(/N=C(/NNS(=O)(=O)c1ccccc1)c1ccccc1)c1ccccc1,21.1
N#CC(C#N)=C/C=C(\Nc1ccc(Cl)cc1)c1ccc(Cl)cc1,24.3
O=C(Nc1cccc(-c2cn3ccccc3n2)c1)c1cccs1,20.2
COCCn1cnc2c1c(=O)n(CC(=O)OCC#N)c(=O)n2Cc1ccccc1,-7.6
O=C(/C=C/c1ccco1)NCCCN1CCN(CCCNC(=O)/C=C/c2ccco2)CC1,16.9
COc1ccc(/C(C)=N/NC(=O)CCC(=O)Nc2ccc(Cl)cc2Cl)c(OC)c1,4.5
C=CCNC(=O)COC(=O)c1cc(S(=O)(=O)N2CCCCC2)ccc1Cl,8.1
CCOc1cccc(/C=N/NC(=O)CC2C(=O)NN=C2C)c1O (stereo not drawn),15.0
[O-]/C(=C(\C(=S)Nc1cccc2ccccc12)[n+]1cccc(CO)c1)c1ccc(Cl)s1,0.9
CC(=O)N(c1ccc(C)cc1)S(=O)(=O)c1ccc(Cl)cc1,15.9
COc1ccccc1OCC#CCn1ccnc1,-31.4
CN1CCc2c(n(CC(O)CN(CCO)CCO)c3ccccc23)C1=O (stereo not drawn),-0.3
S=C1NCN(C2CCCCC2)CN1c1ccccc1,9.3
CN1CCCCCC1C(=O)N1CCC(N2CCC(C(=O)N3CCOCC3)CC2)CC1 (stereo not drawn),-1.4
COCCCn1c(SCc2nnc(-c3ccc(OC)c(OC)c3)o2)nnc1-c1ccncc1,16.5
COc1ccc([C@@H]2[C@@H](C(=O)C(C)(C)C)N3N=Cc4ccccc4[C@@H]3C23C(=O)OC(C)(C)OC3=O)cc1OC,9.2

# (listing goes on)
mol,Calb biofilm kill
CCC(=O)N=c1ccn(C2=Nc3ccccc3NC2=C(C#N)C#N)cc1,13.8
OC(CNCCCCNCC(O)C(F)(F)F)C(F)(F)F (stereo not drawn),12.8
CCOCCCNC(=S)N1CCC(NC(=O)C23CC4CC(CC(C4)C2)C3)CC1,17.7
Cc1nn(-c2ccccc2)c(C)c1/C=C/C(=O)OC(C)C(=O)Nc1ncc(Cl)cc1Cl (stereo not drawn),10.5
c1ccc2nc(N3CCN(Cc4ccc5c(c4)OCO5)CC3)cnc2c1,15.4
FC(F)(F)c1cccc(NC(=S)NCC2COc3ccccc3O2)c1 (stereo not drawn),7.3
O=c1oc2cc([N+](=O)[O-])ccc2nc1/C=C(O)/C=C/c1ccccc1,17.9
CS(=O)(=O)NCC(c1ccco1)N1CCN(c2ccc(F)cc2)CC1 (stereo not drawn),7.4
COc1cc(SC)ccc1C(=O)Nc1ccc2c(c1)OCO2,0.2
O=C(CCC(=O)OCc1ccc([N+](=O)[O-])cc1)Nc1ccc(F)cc1,12.8
CC(C)c1ccc(N2C=Nc3ccc(C(C)C)cc3C2)cc1,19.1
C1CCCCCC(NCCN2CCNCC2)CCCCC1,17.1
O=C(O)C1CCN(Cc2ccccn2)CC1,11.7
O=C(Cc1ccccc1)NCC(=O)OC(c1ccccc1)c1ccccc1,5.7
CCC(=O)NC(=S)Nc1ccc(NC(=S)NC(=O)c2ccccc2)cc1,5.8
C(=N\NCc1ccccc1)/c1ccc2ncccc2c1,24.8
Cc1onc(-c2c(F)cccc2Cl)c1C(=O)Nc1nccs1,16.4
CC(Nc1cc(N2CCNCC2)ccc1[N+](=O)[O-])c1ccccc1 (stereo not drawn),22.2
CCCCN(C)S(=O)(=O)c1ccc(C(=O)N(CCN(C)C)c2nc3ccc(C)cc3s2)cc1,1.9
CC1CCN(C2=C(NS(=O)(=O)c3ccc(Cl)cc3)C(=O)c3ccccc3C2=O)CC1,15.9
O=C(NCCCl)NNC(=O)c1cc2ccccc2cc1O,29.8
CCOc1ccc(C(=O)c2nc3c(n2O)CCCCC3)cc1,9.9
COC(=O)c1nc(NC(=O)c2ccc(F)cc2)n[nH]1,5.2
Cc1cc(C)c(C(=O)CSc2nc3ccccc3c(=O)[nH]2)cc1C,11.3
COc1ccccc1/C=C\C(=O)NCC(=O)N/N=C(\C)Cc1ccccc1,22.5
CC(=O)Nc1ccccc1OCCOc1ccc(Br)cc1,20.6
COC(=O)Nc1ccc(S(=O)(=O)N2CCC(C(=O)NC3CCCCC3)CC2)cc1,15.0
Cc1ccc(NC(=O)C2(c3ccccc3)CCOCC2)c([N+](=O)[O-])c1,-5.8
CCOc1ccc2nc(SCC(=O)Nc3ccc(S(=O)(=O)N4CCCC4)cc3)c(C)cc2c1,17.5
COc1ccc(NC(=O)N2CCCc3cccc(C)c32)cc1,10.1
O=C1CCC(=O)N1CC1CC2CCC1C2 (stereo not drawn),28.3
C/C(=C\C(=O)c1ccc(Cl)cc1Cl)N(C)C,4.4

# Assay outcomes (PubChem)
